# Bioassay records deposited in PubChem by National Center for Advancing Translational Sciences (NCATS).
# Sfp PPTase inh = Sfp phosphopantetheinyl transferase inhibition; Q9F4F7; Biochemical Sfp PPTase activity, qHTS; Potency, µM, inactives show max response, negative = inhibition, usual class: inhibitors; actives 3.5% (n = 310,000); active means well fitted inhibition curve with a large enough effect; inconclusive means small, poorly fitted or top-dose-only effect, or another doubt; inactive means no such curve, though single readings can be large or run the other way;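 further: the enzyme is Sfp with the accession as filed and its product quenches rhodamine fluorescence; potency means the concentration at half of the fitted maximal effect; 0% = enzyme reaction without inhibitor and -100% = no enzyme wells; top concentration of the series not given in the record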
#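 Compounds were incubated with enzyme (final 15 nM) for 15 min at room temperature before substrate addition started the reaction. Fluorescence at 525 nm excitation, 598 nm emission was recorded immediately and after 30 minutes.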
# Menin MLL FP FL = inhibitors of human menin-MLL interaction, wild-type MLL peptide | Fluorescence polarization, fluorescein-MLL peptide displacement from menin | FP activity change, % at 61.4 µM | 290,000 tested, under 10 active; inconclusive = falling polarisation curve, or a change in total fluorescence; inactive = total fluorescence flat and polarisation flat or rising; no compound was filed as active; the % refers to the polarisation; negative = inhibition;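 further: % of control where 0% means no effect; inhibitors lower the polarisation; unlabelled MLL peptide was the positive control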
# PINK1 expr mod = changes PINK1 expression; PINK1 immunofluorescence, high-content cytometry, 24 h; Potency, µM (series often up to 76.6 µM), for inactives: at the highest dose activation (PINK1 increase), hits mostly activators; actives 0.2% (n = 410,000); active = well fitted activation curve with a large enough effect; inconclusive = small, poorly fitted or top-dose-only effect; inactive = flat fitted curve, though single readings scatter; cell line not stated here;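 further: potency means the concentration at half of the fitted maximal effect; % of control where 0% means no effect; nearly all actives have a fitted effect of over 65% in size; a mitochondrial uncoupler was the plate control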
#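 PINK1 protein, normally rapidly degraded, was detected by immunofluorescence after 24 hour compound treatment of a stable cell line. Titration data (5 concentrations) came from laser-scanning cytometry, with CCCP-treated wells as controls.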
# D2 agonist = agonists of human D2 dopamine receptor (beta-arrestin). actives 0.084% (n = 360,000). DiscoveRx PathHunter D2 beta-arrestin, luminescence, 90 min; 100% = 57 uM dopamine signal. activation, % (concentration not given with the values); in the data active = activation above about 40%; inconclusive = about 15% to 40%; inactive = below about 15%; further: compound concentration not given in the record; the text of the record calls up to 30% inactive
# Target sequence (P14416 whole entry, looked up): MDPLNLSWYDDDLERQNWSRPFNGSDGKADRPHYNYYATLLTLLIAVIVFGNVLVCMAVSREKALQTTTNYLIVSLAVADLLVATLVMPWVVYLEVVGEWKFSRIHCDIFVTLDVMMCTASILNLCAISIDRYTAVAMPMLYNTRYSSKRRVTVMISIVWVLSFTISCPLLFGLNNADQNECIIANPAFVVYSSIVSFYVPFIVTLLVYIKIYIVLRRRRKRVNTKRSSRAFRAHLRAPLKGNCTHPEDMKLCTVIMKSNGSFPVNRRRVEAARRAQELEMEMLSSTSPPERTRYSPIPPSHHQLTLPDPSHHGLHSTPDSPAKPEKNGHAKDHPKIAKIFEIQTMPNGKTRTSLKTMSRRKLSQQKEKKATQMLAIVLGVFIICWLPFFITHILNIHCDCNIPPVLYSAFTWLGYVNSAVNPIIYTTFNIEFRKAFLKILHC
#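 Agonist mode: compounds alone added to overnight-plated D2 PathHunter cells for 90 min at 37 C, with 57 uM final dopamine (EC100) defining full response. Beta-arrestin recruitment detected by chemiluminescent reagent, read after 1 h at ambient temperature.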
# gsp antag = gsp mutant antagonism; AID 624288; gsp-mutant cells, cAMP HTRF, 30 min; control for the full effect not named in the record; Potency, µM (series often up to 76.9 µM), inactives show at the highest dose activity change, negative = inhibition, usual class: inhibitors; actives 0.4% (n = 340,000); active = falling curve of any shape with a large fitted effect; inconclusive = falling curve, mostly with a smaller effect; inactive = flat or rising curve; cell line not stated here;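 further: intracellular cAMP measured with PDE inhibitor Ro 20-1724 present during compound exposure; potency means the concentration at half of the fitted maximal effect; on the % scale 0 is the no-effect control and ±100 the full control effect; nearly all actives have a fitted effect of over 65% in size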
#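 HTRF cAMP read-out (cAMP-d2 plus anti-cAMP antibody-K in lysis buffer, 30 min RT). Before lysis, cells are exposed to compounds with […] for 30 min at 37C in DPBS containing Ca/Mg, BSA and Tween 20.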
# gsp agonist = gsp mutant agonism. Potency, µM (highest dose often 76.9 µM), inactives show at the top dose activation (cAMP increase), usual class: activators. actives 0.13% (n = 340,000). gsp mutant cells, cAMP HTRF, 30 min; control for the full effect not named in the record. AID 624287; active = well fitted activation curve with a large enough effect; inconclusive = small, poorly fitted or top-dose-only effect, or another doubt; inactive = no such curve, though single readings can be large or run the other way; cell line not stated here;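 further: phosphodiesterase inhibitor Ro 20-1724 added with compounds to block cAMP breakdown; potency means the concentration at half of the fitted maximal effect; nearly all actives have a fitted effect of over 60% in size; about a fifth of the inactives were tested at one dose only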
#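 Cells in DMEM/10% FBS with G418 were pretreated with compounds in DMSO plus […] (300 uM stock) for 30 min at 37C. cAMP was measured by HTRF (cAMP-d2 plus anti-cAMP antibody-K) after 30 min at room temperature.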
# ClpP mod = qHTS Assay for Activators of ClpP. purified B. subtilis ClpP, FRET peptide cleavage, 20 min. Potency, µM (series often up to 57.5 µM), inactives show at the top dose activity change, negative = active. actives 1.9% (n = 340,000); active = well fitted falling curve with a large enough effect; inconclusive = small, poorly fitted or top-dose-only effect; inactive = no such curve, though single readings can be large or run the other way; further: potency means the concentration at half of the fitted maximal effect; the source files actives as falling curves though it sought activators and does not explain the sign; nearly all actives have a fitted effect of over 65% in size; many hits overshoot -100%
# Target sequence (P80244 whole entry, looked up): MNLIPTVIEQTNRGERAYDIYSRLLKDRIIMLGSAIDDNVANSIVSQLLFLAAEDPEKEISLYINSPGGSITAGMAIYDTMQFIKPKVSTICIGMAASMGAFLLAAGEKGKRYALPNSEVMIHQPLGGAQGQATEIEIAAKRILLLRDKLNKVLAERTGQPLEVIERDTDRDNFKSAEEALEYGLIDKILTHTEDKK
#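 Buffer: 100 mM Tris/HCl pH8, 100 mM KCl, 0.05% low protease BSA, 2.5% glycerol, 0.01% Tween-20. ClpP 10 microg/mL final; 20 min RT; delta FRET normalized to ADEP and DMSO controls.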
# Numbers without * were called inactive; ? = inconclusive; / = not tested or not shown; & = joins results of further samples; [ ] = another dose, or the depositor's remark. Only part of the results is shown (hit frequency here may not be typical).
structure	Sfp PPTase inh	Menin MLL FP FL	PINK1 expr mod	D2 agonist	gsp antag	gsp agonist	ClpP mod
CC12CN3CCN(C1)CC(C)(C3)C2=NN	24%	5.4	2.2%	-2.5	8%	12%[15.4 µM]	/
COc1ccc(N2CCN(CCc3ccncc3)CC2)cc1	12%	3.4	0.8%	-0.9	-9%	?	/
C[C@@H]1CN([C@@H](C)CO)C(=O)CCCn2nncc2CO[C@@H]1CN(C)C(=O)Oc1cccc2ccccc12	/	/	-0.3%	-0.1	/	?	-1.5%
COC(=O)C1C2c3ccccc3OC1(C)N=c1s/c(=C/c3cn(C)nc3C)c(=O)n12 (configuration not stated)	10%	1.7	2.2%	-1.5	-4%	-39%[inhibitor]	-1.7%
CCC1C(c2cc(OC)c(OC)c(OC)c2)c2cc3c(cc2OC1N1CCCC1)OCO3 (configuration not stated)	/	/	3.9%	1.6	23%	-4%	1.1%
O=C(Cc1ccccc1)N1CCN(Cc2cccnc2)CC1	79µM*	3.3	0.0%	-2.9	5%	-11%	-0.8%
c1ccc2c3c([nH]c2c1)CNCC3	-13%	-0.6	0.3%	11	11%	/	-5.3%
Cc1ccc(/C=C2/Sc3ccc(C(=O)N4CCC5(CC4)OCCO5)cc3NC2=O)cc1	-2%	?	8.2%	-3.0	-15%	-6%[15.4 µM]	/

# Part of the list above, limited to gsp agonist and PINK1 expr mod:
SMILES,gsp agonist,PINK1 expr mod
Cc1ccc(/C=C2/Sc3ccc(C(=O)N4CCC5(CC4)OCCO5)cc3NC2=O)cc1,-6%[15.4 µM],8.2%
COC(=O)C1C2c3ccccc3OC1(C)N=c1s/c(=C/c3cn(C)nc3C)c(=O)n12 (configuration not stated),-39%[inhibitor],2.2%

# Further records:
structure	Sfp PPTase inh	Menin MLL FP FL	PINK1 expr mod	D2 agonist	gsp antag	gsp agonist	ClpP mod
Cc1cc(-c2ccc(N)c(C)c2)ccc1N	/	/	0.3%	-3.0	-8%	/	?
C[C@]12CC[C@H]3C(CCC4(O)CC(O)CC[C@]34C=O)C1=CC[C@H]2c1ccc(=O)oc1 (some centres not stated)	-3%	2.0	-0.7%	-1.3	-12%	-4%	0.8%
COc1cccc(C(=O)C2CCCN(Cc3ccc4nonc4c3)C2)c1 (configuration not stated)	6%	0.5	0.0%	-2.2	2%	-18%[15.4 µM]	/
O=C1NC(=S)NC(=O)C1=Cc1ccc(Br)s1	16µM*	?	-1.1%	-3.6	-6%	23%	0.6%
COC(=O)CC1NC2CCCCC2NC1=O (configuration not stated)	21%	-0.9	2.2%	-2.4	3%	-16%	0.7%
NC(=O)CN1C2CCC1CC(NC(=O)C1CC1)C2 (configuration not stated)	6%	-0.9	1.2%	0.8	6%	-90%[inhibitor]	?
CCCCn1nnnc1C(c1cccs1)N1CCC2(CC1)C(=O)NCN2c1ccccc1 (configuration not stated)	/	/	0.5%	-1.1	/	/	-0.1%
COc1ccccc1CCNC(=O)CCC(=O)N1CC2C[C@@H](C1)Cn1c2cccc1=O	9%	-8.4	1.2%	-10	9%	/	-18%
COc1ccc(C(=O)C2CCCN(CC3CCCCC3)C2)cc1OC (configuration not stated)	/	/	1.6%	/	/	/	-18%
COC(=O)C1=C(c2cccc(OCc3ccccc3)c2)C[C@@H]2CC[C@H]1N2C(=O)NCc1ccc(N(C)C)cc1	/	/	-2.2%	-4.4	-16%	15%	-0.6%
C=CCC1(CN2CCCC2=O)C(=O)NC(=O)NC1=O	5%	-2.2	4.5%	-0.8	5%	11%	-0.9%
CCCn1c(C)cc(C=O)c1C	15%	0.8	0.9%	-6.6	6%	14%[15.4 µM]	/
C[C@]12CC[C@@H](O)CC1=CCC1C2CC[C@]2(C)C(=O)[C@H](F)CC12 (some centres not stated)	/	/	0.6%	0.2	8%	-8%[15.4 µM]	0.9%
CC1CN(c2ccccn2)C(C)CN1C(=O)C(O)(c1ccccc1)c1ccccc1 (configuration not stated)	/	/	-0.1%	-2.5	-5%	26%	/
O=P(N1CC1)(N1CC1)N1CCc2ccccc21	/	/	0.6%	-1.7	3%	-15%	/
COC(=O)C1=C(c2cc3ccccc3o2)C[C@@H]2CC[C@H]1N2C(=O)NCc1ccc(C(F)(F)F)cc1	/	/	0.4%	-6.7	?	?	-18%
O=C1NCN(c2ccccc2)C12CCN(C(c1ccccc1)c1nnnn1Cc1ccccc1)CC2 (configuration not stated)	/	/	-1.1%	-3.5	/	/	0.1%
O=C1NC(=O)C(=Cc2ccc(N3CCOCC3)o2)C(=O)N1	-19%	?	0.3%	-5.2	-8%	2%	/
CCCNC1=C(C)C(=O)C2=C(C1=O)C(COC(N)=O)[C@]1(OC)C3NC3CN21 (some centres not stated)	5%	0.2	-2.0%	0.8	-28%	-4%[15.4 µM]	1.4%
COC1=CC(=O)OC(CCc2ccc3c(c2)OCO3)C1 (configuration not stated)	/	/	-1.1%	-6.3	-5%	/	0.0%
COC(=O)C1=C(c2ccccc2OCc2ccccc2)C[C@@H]2CC[C@H]1N2C(=O)NCc1cccc(F)c1	/	/	-0.3%	-3.2	-20%	-30%	-1.0%
Cc1ccc2[nH]c3c(c2c1)CN(C(=O)CN1C[C@H]2C[C@@H](C1)c1cccc(=O)n1C2)CC3	8%	-20	1.2%	-4.1	5%	/	-4.0%
CCCCn1c(O)c(C(C)=NC(C)c2ccccc2)c(=O)[nH]c1=O (configuration not stated)	4%	4.8	5.0%	-0.6	2%	-9%	-3.5%
O=C1NC2C(O)C(O)C(O)C(O)C2c2cc3c(c(O)c21)OCO3 (configuration not stated)	/	/	-7.2%	-7.3	5%	5%	-3.1%
O=[N+]([O-])c1ccc(N2CCCCC2)c2ncccc12	-26%	13	-0.5%	-1.6	?	-14%[15.4 µM]	/
COC(=O)C(O)(c1ccc(NC(=S)NC(=O)c2ccc(Cl)cc2Cl)cc1)C(F)(F)F (configuration not stated)	4%	0.4	9.8%	-6.3	-3%	-40%[inhibitor]	-0.9%
C[C@@H]1CN([C@H](C)CO)C(=O)CCCn2nncc2CO[C@H]1CN(C)C(=O)Oc1ccc2ccccc2c1	/	/	0.0%	-0.4	/	5%	-0.3%
Cn1c(O)c(/C=C2\C=c3ccccc3=NC2=O)c(=O)n(C)c1=O	45µM*	-1.4	-0.7%	-1.2	1%	13%	19%
O=c1[nH]c(=S)n(C2CC2)c(O)c1C=NCc1cccnc1	-12%	3.1	0.5%	-3.4	3%	?	/
Cc1cc(C)nc(NC2=NCCS2)n1	-1%	2.2	0.3%	-2.0	3%	-28%	0.1%
C#CCN1C(=O)S/C(=C\c2ccc(N3CCOCC3)cc2C)C1=O	5%	?	0.5%	-0.5	-1%	11%[15.4 µM]	/
CCN1CC2C3CCC(C)(O3)C2C1 (configuration not stated)	14%	-10	1.3%	-6.8	7%	?	/
COC(=O)C(O)(c1ccc(N(C)C)cc1)C(F)(F)F (configuration not stated)	32%[activator]	0.3	-2.0%	-5.0	7%	12%	-0.6%
COc1ccccc1N1C(=O)NC(=O)/C(=C/c2ccc3c(c2)Cc2ccccc2-3)C1=O	50µM*	6.5	-0.7%	-5.5	1%	-31%[inhibitor]	/
O=[N+]([O-])c1cc(F)c(N2CCCCC2)cc1Br	-17%	1.7	3.3%	-1.3	-3%	17%[15.4 µM]	/
COCCNC(=O)c1c(N)n(Cc2ccco2)c2nc3ccccc3nc12	-26%	?	-4.7%[38.3 µM]	-2.2	9%	-3%	?
O=S(=O)(CCN1CCN(c2ccccn2)CC1)c1ccc(Cl)cc1Cl	6%	4.1	-1.8%	3.4	0%	5%[15.4 µM]	?
Cc1noc(C)c1C(=O)N1CCC2(CCCN(CC(C)C)C2)CC1	4%	-7.4	-1.2%	/	/	/	/
Cn1c(O)c(/C=C2/C=CC=N2)c(=O)[nH]c1=O	9%	6.3	3.2%	-4.6	-12%	-4%[15.4 µM]	/
C#CCOC(=O)C1=CCCN(C)C1	14%&2%	4.9&9.3	3.3%	-3.0	15%	/	-3.5%
C[C@]12C=CC(=O)C=C1CC[C@@H]1C2CC[C@]2(C)OC(=O)CCC12 (some centres not stated)	15%&13%	2.9&-3.8	-0.1%	-0.7	10%	-4%	/
Cc1ccc2c(c1)c(C1=c3ccccc3=NC1=O)c(O)n2C	?	-3.0	7.0%	-3.7	-5%	2%	-0.4%
CCCCOc1ccc(C(=O)NCC(=O)N2CCN(C/C=C/c3ccccc3)CC2)cc1	/	/	2.7%	1.2	/	-31%[inhibitor]	1.8%
CCC[N+]12CCC(CC1)C(C(O)(c1ccccc1)c1ccccc1)C2 (configuration not stated)	18%	0.2	-0.3%	-5.1	20%	-17%	-0.9%
ClC1=CCC2CN(CCN3CCCCC3)CC2C1 (configuration not stated)	19%	-0.1	-1.3%	-0.3	14%	-24%	-1.9%
Cc1cc(N2CCN(C(=O)c3ccco3)CC2)n2ncnc2n1	5%	-2.2	-2.4%	-3.2	6%	0%	1.1%
COC(=O)C1=C(c2cccc(OC)c2OC)C[C@@H]2CC[C@H]1N2C(=O)NCCCOC(C)C	/	/	-0.5%	0.9	8%	-6%	1.4%
CC(N)c1cccc(Cl)c1Cl (configuration not stated)	/	6.5	0.0%	/	/	/	1.5%
COc1ccc(C2SCC(=O)Nc3c2c(C)nn3C2CCOC(C)(C)C2)cc1OC (configuration not stated)	-7%	-2.4	-4.8%[38.3 µM]	-2.0	7%	10%	-1.9%
COc1cc2c(c(OC)c1OC)-c1ccc(O)c(=O)cc1C(NC(C)=O)CC2 (configuration not stated)	7%&1%	5.0&-1.6	6.9%&15%	-4.9	7%	1%[15.4 µM]	/
Cn1c(O)c(/C=N/c2ncccn2)c(=O)n(C)c1=O	3%	?	2.8%	-3.4	8%	?	1.4%
CCCCn1c(O)c(C=NC2CC3CCC2(C)C3(C)C)c(=O)[nH]c1=O (configuration not stated)	-11%	-1.5	0.1%	-1.9	7%	-3%	-0.8%
